Compound activity deposited in PubChem BioAssay by National Center for Advancing Translational Sciences (NCATS).
Sfp PPTase inh = Sfp phosphopantetheinyl transferase inhibition; Biochemical Sfp PPTase activity, qHTS; Potency, µM, for inactives: max response, negative = inhibition, most hits filed as inhibitors; hit rate 3.5% among 310,000; active = well fitted inhibition curve with a large enough effect; inconclusive = small, poorly fitted or top-dose-only effect, or another doubt; inactive = no such curve, though single readings can be large or run the other way;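 note: the enzyme is Sfp with the accession as filed and its product quenches rhodamine fluorescence; potency is the fitted concentration of half-maximal effect; 0% = enzyme reaction without inhibitor and -100% = no enzyme wells; top concentration of the series not given in the record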
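Buffer: 50 mM Hepes-Na pH 7.6, 10 mM MgCl2, 0.01% Nonidet P-40, 0.01% BSA. Enzyme 15 nM, pre-exposed to compound 15 min; substrates then added and fluorescence change tracked over 30 min.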
TRPML1 blocker = blocks the human TRPML1 channel. AID 624415. TRPML1-inducible cells, Ca2+ dye fluorescence, FDSS; stronger effect = lower value; inhibition of EC80 agonist-evoked calcium signal. activity change, negative = inhibition, % (no concentration beside the values). hit rate 0.02% among 390,000. Q9GZU1; in the data active means activity change below about -50%; inconclusive means about -30% to -50%; inactive means above about -30%;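 note: stimulus is agonist 54-4 at its EC80 concentration; % is set by controls: 0 for no effect and ±100 for the full control effect; compound concentration not given in the record; the text of the record puts the active cut at -80%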
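TRPML1-DL cells, Tet-induced overnight (~16 h, 37 °C) at 1,500 cells/well, were loaded with Ca8 no-wash dye plus quencher for 45-90 min at room temperature. Compounds were pinned during FDSS kinetic reading; agonist 54-4 at EC80 (4 uM final) then added.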
gsp antagonist = antagonists of gsp mutant (McCune-Albright syndrome) | gsp-mutant cells, cAMP HTRF, 30 min; control for the full effect not named in the record | Potency, µM (titrated, usually from 76.9 µM), inactives show at the highest dose activity change, negative = inhibition, hits mostly inhibitors | hit rate 0.4% among 340,000 | AID 624288; active = falling curve of any shape with a large fitted effect; inconclusive = falling curve, mostly with a smaller effect; inactive = flat or rising curve; cell line not stated here;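 note: intracellular cAMP measured with PDE inhibitor Ro 20-1724 present during compound exposure; potency is the fitted concentration of half-maximal effect; % is set by controls: 0 for no effect and ±100 for the full control effect; nearly all actives have a fitted effect of over 65% in size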
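G418-selected cells were plated in DMEM/10% FBS for 16-24 h at 37C, then treated with compounds plus the PDE inhibitor […] (300 uM solution added) for 30 min at 37C. Intracellular cAMP was measured by HTRF after 30 min lysis at room temperature.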
TRPV1 PAM = enhances activation of the human vanilloid receptor TRPV1; AID 540277; Q8NER1; hit rate 0.02% among 320,000; TRPV1-expressing cells, Fluo-8 calcium influx, capsaicin EC20 potentiation; host cell line not named in the record; control for the full effect not named in the record; potentiation, % at 8.33 µM; active means potentiation above 80%; inconclusive means 30% to 80%; inactive means below 30%; note: 0% is about no effect
Target sequence (Q8NER1 whole entry, looked up): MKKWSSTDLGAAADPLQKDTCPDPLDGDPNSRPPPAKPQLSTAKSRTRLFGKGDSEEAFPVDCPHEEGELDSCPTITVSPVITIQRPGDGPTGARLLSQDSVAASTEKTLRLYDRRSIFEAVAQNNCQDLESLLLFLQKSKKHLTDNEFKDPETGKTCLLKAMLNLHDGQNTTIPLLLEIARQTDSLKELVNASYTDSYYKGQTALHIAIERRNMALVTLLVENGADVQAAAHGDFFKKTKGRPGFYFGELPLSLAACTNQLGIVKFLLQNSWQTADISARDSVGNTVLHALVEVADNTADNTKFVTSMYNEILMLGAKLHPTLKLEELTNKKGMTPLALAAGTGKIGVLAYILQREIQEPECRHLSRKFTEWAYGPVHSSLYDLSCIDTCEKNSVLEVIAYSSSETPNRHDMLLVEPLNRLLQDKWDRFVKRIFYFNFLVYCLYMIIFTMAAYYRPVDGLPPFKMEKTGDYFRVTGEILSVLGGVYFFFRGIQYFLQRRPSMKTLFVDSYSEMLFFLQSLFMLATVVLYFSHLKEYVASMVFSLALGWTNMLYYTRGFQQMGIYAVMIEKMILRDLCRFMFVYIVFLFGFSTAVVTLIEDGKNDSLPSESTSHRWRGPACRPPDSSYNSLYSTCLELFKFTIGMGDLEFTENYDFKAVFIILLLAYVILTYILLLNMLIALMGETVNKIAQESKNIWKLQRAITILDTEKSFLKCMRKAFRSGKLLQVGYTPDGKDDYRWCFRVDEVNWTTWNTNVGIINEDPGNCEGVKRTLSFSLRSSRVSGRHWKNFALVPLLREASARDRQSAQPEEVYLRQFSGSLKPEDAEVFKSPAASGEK
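Fluo-8 calcium influx in TRPV1-expressing cells, kinetic read (ex 480/em 520 nm). Compound added and read 3 min for agonist activity, followed by capsaicin at EC20 final and 2 min further read for enhancement.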
gsp agonist = activates gsp, the McCune-Albright syndrome mutation. AID 624287. hit rate 0.13% among 340,000. Potency, µM (doses to about 76.9 µM), for inactives: at the top dose activation (cAMP increase), usual class: activators. gsp mutant cells, cAMP HTRF, 30 min; control for the full effect not named in the record; active = well fitted activation curve with a large enough effect; inconclusive = small, poorly fitted or top-dose-only effect, or another doubt; inactive = no such curve, though single readings can be large or run the other way; cell line not stated here;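 note: phosphodiesterase inhibitor Ro 20-1724 added with compounds to block cAMP breakdown; potency is the fitted concentration of half-maximal effect; nearly all actives have a fitted effect of over 60% in size; about a fifth of the inactives were tested at one dose only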
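Cells stably selected in G418 were plated at 2000/well, grown 16-24 hr, then given compounds in DMSO with the PDE inhibitor […] (300 uM solution added) for 30 min at 37C; cAMP was read by HTRF.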
ClpP mod = qHTS Assay for Activators of ClpP; purified B. subtilis ClpP, FRET peptide cleavage, 20 min; ATP-dependent Clp protease proteolytic subunit (Bacillus subtilis (strain 168)), P80244; hit rate 1.9% among 340,000; AID 651965, 2013; Potency, µM (top dose mostly 57.5 µM), without a hit: top-dose activity change, negative = active; active = well fitted falling curve with a large enough effect; inconclusive = small, poorly fitted or top-dose-only effect; inactive = no such curve, though single readings can be large or run the other way; note: potency is the fitted concentration of half-maximal effect; the source files actives as falling curves though it sought activators and does not explain the sign; nearly all actives have a fitted effect of over 65% in size; many hits overshoot -100%
Target sequence (P80244 whole entry, looked up): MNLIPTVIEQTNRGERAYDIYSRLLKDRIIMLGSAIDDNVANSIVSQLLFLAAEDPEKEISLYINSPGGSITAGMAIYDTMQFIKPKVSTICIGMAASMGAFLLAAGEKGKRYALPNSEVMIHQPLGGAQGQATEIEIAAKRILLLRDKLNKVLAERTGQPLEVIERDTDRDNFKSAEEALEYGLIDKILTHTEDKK
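ClpP 10 microg/mL final, pH 8 Tris/KCl buffer with BSA, glycerol, Tween-20; compound pinned in; FRET-FV substrate; RT 20 min; Ex320/Em430; ΔFRET vs ADEP 5.8 microM, DMSO, no enzyme.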
Menin-MLL FL inh = menin-MLL binding inhibition, fluorescein peptide; Fluorescence polarization, fluorescein-MLL peptide displacement from menin; FP activity change, % at 61.4 µM; 290,000 tested, under 10 active; AID 1766; inconclusive = falling polarisation curve, or a change in total fluorescence; inactive = total fluorescence flat and polarisation flat or rising; no compound was filed as active; the % refers to the polarisation; negative = inhibition;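 note: % of control where 0% means no effect; inhibitors lower the polarisation; unlabelled MLL peptide was the positive control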
* = called active by the depositor; ? = inconclusive; . = no result given; & = joins results of further samples; [ ] = dose if it differs, or a comment.

compound	ClpP mod	TRPV1 PAM	Sfp PPTase inh	gsp agonist	TRPML1 blocker	Menin-MLL FL inh	gsp antagonist
CC(=O)CCS(=O)(=O)c1ccc(NC(C)=O)cc1	-1.0%	-2	10%	-30%[inhibitor]	8	2.4	3%
CCC(NC(=O)CN1CCN(C(=O)c2cccs2)CC1)c1ccc(C)cc1 (stereo not given)	-0.5%	-15	.	?	-10	.	-1%
COc1cc(OC)c(N(C)S(=O)(=O)c2cccc(C(=O)OCC(=O)c3c[nH]c4ccccc34)c2)cc1Cl	?	4	16%	8%[15.4 µM]	12	4.8	-7%
Cc1cc(C)nc(NC(N)=S)n1	1.8%	-2	19%	20%	.	2.1	13%
NNC(=O)c1oc2nc(-c3cccs3)cc(-c3ccco3)c2c1N	.	2	-9%	.	.	?	.
Cc1cc(C)c(S(=O)(=O)Nc2ccc(-c3cn4ccccc4n3)cc2)c(C)c1	?	27	-10%	13%	-7	2.5	-17%
C=C(C)CNC(=O)CCc1nnc(Cc2cccc(C(F)(F)F)c2)o1	.	-4	21%	-25%	4	0.2	4%
Cn1cnnc1SCC(=O)Nc1ccc2nc(SCc3ccccc3F)sc2c1	-0.2%	9	-11%	-7%	16	-1.6	-2%
COc1ccc(C/C(N)=N/OC(=O)C(c2ccccc2)c2ccccc2)cc1OC	-1.1%	-2	-13%	-15%	36	5.6	-13%
CC12CCC(=O)N1C(C(=O)Nc1ccc(S(=O)(=O)N3CCCCC3)cc1)CS2 (stereo not given)	-0.3%	4	.	6%	-28	.	10%
CC(=O)Nc1ccc(S(=O)(=O)N(C)CC(=O)NC2CCCC(C)C2C)cc1 (stereo not given)	.	1	.	3%[15.4 µM]	-10	.	-1%
CCOC(=O)/C=C/C(=O)N1CCN(C(=O)/C=C/C(=O)OCC)CC1	.	9	8%	-7%[15.4 µM]	-2	-0.8	8%
CC(C)(C)c1ccc(C(=O)N2CCCCCC2=O)cc1	-1.2%	-11	-1%	-21%	-5	-0.7	-12%
Cc1nc2ccc(NC(=O)N3CCSCC3)cc2nc1C	25µM*	-5	17%	10%	33	0.9	-7%
O=C(O)c1ccc(Cl)c(NC(=O)C2CCCN2S(=O)(=O)c2cccc3nsnc23)c1 (stereo not given)	-4.9%	28	6%	7%	-5	1.6	-5%
COc1ccccc1C(CCNCc1ccc(N(C)C)cc1)c1ccc(OC(C)C)cc1 (stereo not given)	-0.1%	-2	-18%	-10%	16	-0.8	8%
CC1(c2ccccc2Cl)NC(=O)N(CC(=O)NCc2ccc3c(c2)OCO3)C1=O (stereo not given)	.	-15	7%	14%	0	-5.0	-4%
CCOC(=O)c1ccc(-c2cccc(-c3cc(=O)oc4cc(OC)cc(OC)c34)c2)cc1	20µM*	.	-18%	.	-7	-2.0	-7%
CC(NC(=O)C(=O)NCCC1=CCCCC1)c1ccccc1 (stereo not given)	-2.2%	10	3%	24%	3	-2.2	-20%
COc1cccc(C(=O)N2CCN=C2SC)c1	.	20	19%	-1%[15.4 µM]	24	-6.5	-9%
O=C(Nc1ccccc1)C(c1ccccc1)c1ccccc1	.	24	14%	0%	-12	-3.1	-12%
CC[C@]12c3[nH]c4cc(CCC(=O)N(C)C)ccc4c3CCN1C(=O)[C@@H](CC(=O)NCCN1CCOCC1)C[C@@H]2C(=O)N1CCN(C(=O)C2CC2)CC1	-1.0%	.	.	.	8	.	3%
CC(C)C(=O)N(Cc1cc2ccccc2[nH]c1=O)C(C)(C)C	?	2	0%	16%	-8	-1.3	6%
Cc1onc(-c2c(Cl)cccc2Cl)c1NC(=O)NN(C)C	3.2%	4	7%	2%	52	-0.4	3%
Cc1csc(NC(=O)CSc2ncnc3c2cnn3-c2ccccc2Cl)n1	-2.2%	23	1%	-4%	23	0.3	?
O=S(=O)(Nc1ccc2nc(-c3ccco3)[nH]c2c1)c1ccccc1	-11%	11	28µM*	-33%[inhibitor]	-11	12	-8%
O=C(C1=C[C@@H](c2ccc(C(F)(F)F)cc2)C[C@@H](OCc2ccc(CO)cc2)O1)N1CCN(Cc2ccccc2)CC1	0.8%	6	11%	11%	7	5.8	-11%
Cc1ccc2oc(C(F)(F)C(F)F)cc(=O)c2c1	-1.3%	-5	26%	-8%[15.4 µM]	-8	3.2	5%
Cc1cccc(C)c1NC(=O)C(c1cccs1)N(Cc1ccco1)C(=O)Cn1nnc2ccccc21 (stereo not given)	-1.1%	-12	20%	-24%	-16	2.6	-10%
CCSC1=C(C#N)C(c2ccccc2C)CC(=O)N1 (stereo not given)	1.1%	2	18%	-66%[inhibitor]	4	-0.8	5%
COc1ccc(CCNC(=O)CSc2nc3[nH]c(=O)cc(O)c3s2)cc1	-3.3%	-2	.	-13%	20	.	3%
C=CC(=O)N1C/C=C\C(c2ccc(OC)cc2)N(Cc2ccc(F)cc2)C(=O)C1 (stereo not given)	-0.7%	5	9%&-6%	.	1&1	0.7&-1.6	9%
CC(=O)NC1C(OCCOc2ccc(Cl)cc2C)OC(CO)C(O)C1O (stereo not given)	0.0%	17	1%	4%	11	?	8%
CCN(CC)C(=O)c1ccc(Nc2nnc(C)c3ccccc23)cc1	-4.3%	-6	9%	16%	0	-0.1	-1%
Cc1onc(-c2ccccc2Cl)c1C(=O)NC(=S)Nc1ccc(C(C)C)cc1	0.0%	0	7%	26%	5	3.9	-12%
COc1ccc(C(=O)N/N=C2/SCC(=O)N2Cc2ccc3c(c2)OCO3)cc1OC	-6.1%	.	14%	5%	12	0.6	4%
O=C(Nc1nc(-c2ccccc2)cs1)C1CCCN(S(=O)(=O)c2ccccc2)C1 (stereo not given)	-0.7%	-21	17%	-8%	18	-0.5	-29%
CC(=O)Nc1ccc(NC(=O)CSc2cn(CC(=O)N3CCOCC3)c3ccccc23)cc1	-2.8%	3	7%	-21%	2	-4.4	2%
CCn1cnc2c1c(=O)n(CC(=O)O)c(=O)n2Cc1ccccc1	.	-8	15%	3%	-15	.	8%
CCCCCCN1C2=NCCCN2c2ccccc21	0.7%	.	-2%	-2%	4	2.9	16%
CCN1CCCC1CNC(=O)C1CCN(C(=O)c2cc3sccc3n2Cc2ccc(F)cc2)CC1 (stereo not given)	-9.5%	-1	0%	?	-2	0.7	7%
COc1ccc(NC(=O)CC(c2ccco2)C(C)C)cc1 (stereo not given)	?	11	-1%	-1%[15.4 µM]	15	0.6	8%
Cc1ccc(-n2nnnc2SCC(=O)c2cc(C)n(-c3cc(C)on3)c2C)c(C)c1	6.9%	-8	-10%	-29%	7	2.8	-9%
O=C1NCCn2nc3ccccc3c21	3.5%	-1	.	.	-8	.	5%
O=C1c2ccccc2C(=O)N1CCCc1nc2ccccc2c(=O)n1-c1cccnc1	1.4%	10	7%	2%	-3	-0.6	-4%
CSCCC(NC(=O)c1cc([N+](=O)[O-])cc([N+](=O)[O-])c1)c1nc2ccccc2[nH]1 (stereo not given)	-6.0%	-14	-21%	2%	-9	3.2	-11%
Cc1nnc(NC(=O)CSc2nc3c(c(=O)n(C)c(=O)n3C)n2C(C)C)s1	.	2	12%	-43%[inhibitor]	-1	0.5	7%
CC[C@]12c3[nH]c4cc(-c5ccco5)ccc4c3CCN1C(=O)[C@@H](CC(=O)NCc1cccc(C(F)(F)F)c1)C[C@@H]2C(=O)N1CCN(C(=O)c2ccco2)CC1	-5.3%	.	.	.	-2	.	-14%
CCOCCc1nn2c(=O)cc(CSCC(=O)Nc3cccc(C)c3C)nc2s1	0.4%	6	3%	?	19	1.5	-3%
Cc1cccc(N(Cc2cc3ccc(C)cc3[nH]c2=O)C(=O)c2ccco2)c1	-24%	-12	22µM*	10%	6	7.6	-8%

Additional structures.
compound	ClpP mod	TRPV1 PAM	Sfp PPTase inh	gsp agonist	TRPML1 blocker	Menin-MLL FL inh	gsp antagonist
CCOc1ccc(NC(=O)CN(C)C(=O)c2c(C)nn(-c3ccc(F)cc3)c2Cl)cc1OCC	1.2%	5	.	?	-18	.	1%
CC1CC(C)CN(C(=O)CCC(=O)Nc2nnc(C3CCCCC3)s2)C1 (stereo not given)	-1.0%	5	2%	6%	-7	.	4%
COCC(C)N=C1NN=C(c2ccc(NC(C)=O)cc2)CS1 (stereo not given)	.	-11	40µM*	5%	-7	1.2	6%
O=c1oc2ccccc2cc1-c1csc(Cc2nc(-c3ccc(Br)cc3)cs2)n1	28%	9	2%	-16%	7	2.8	-1%
Cc1ccc(Nc2cc(C)nc(-c3ccccc3O)n2)cc1	?	5	12%	0%	36	0.7	-14%
O=C(NCc1ccccc1)c1cccc(COc2cccc(Cl)c2)c1	-1.4%	-1	3%	-6%	3	6.0	-13%
Cn1c(=O)cc(OCCCC(=O)Nc2ccc3c(c2)OCCO3)c2ccccc21	5.3%	8	9%	-2%	3	4.9	2%
CCN(CC)C(=O)C1=C(C)N(Cc2ccc(OC)cc2)C(=O)C(CC(=O)NCCN2CCOCC2)C1 (stereo not given)	0.2%	.	.	17%	-9	.	.
Fc1cccc(Nc2nc(N3CCOCC3)nc(N3CCOCC3)n2)c1	-2.3%	2	5%	-2%	14	-0.1	-3%
CC(=O)Nc1cccc(C(=O)OCC(=O)NC(=O)Cc2ccccc2)c1	-1.6%	1	.	-43%	-2	.	1%
COc1ccc(C)c2sc(NNC(=O)COc3ccccc3)nc12	.	9	56µM*	.	.	-0.1	.
Cc1cc(C)cc(OCC(=O)N/N=C/c2ccccn2)c1	-3.7%	1	?	22%	.	-13	2%
COc1ccc(Cl)cc1N(CC(=O)Nc1ccc2c(c1)OCCO2)S(C)(=O)=O	-1.6%	-5	3%	12%	2	2.4	-14%
Cc1nn(-c2ccc(F)cc2)c(C)c1CN1CCN(CCC(C)C)C(CCO)C1 (stereo not given)	.	6	10%	-27%[15.4 µM]	43	-2.2	5%
CN(C)C(=O)c1cc([N+](=O)[O-])cc([N+](=O)[O-])c1N(C)C	-2.3%	8	5%	-22%	48	-0.8	0%
